AF4-AF9 inh = blocks AF4 peptide binding to human AF9; P42568; AlphaScreen, biotin-AF4 peptide binding to FLAG-AF9; inhibition, % at 10 µM; hit rate 0.47% among 350,000; AID 651704;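 active = every replicate reaching a set inhibition limit, whatever the replicate mean, cut at about 25% in these data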;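 also: 0% = plate neutral control median and 100% = total signal loss; the record names both 10 and 1 µM as test concentration; the first replicate is given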
Target sequence (P42568 whole entry, looked up): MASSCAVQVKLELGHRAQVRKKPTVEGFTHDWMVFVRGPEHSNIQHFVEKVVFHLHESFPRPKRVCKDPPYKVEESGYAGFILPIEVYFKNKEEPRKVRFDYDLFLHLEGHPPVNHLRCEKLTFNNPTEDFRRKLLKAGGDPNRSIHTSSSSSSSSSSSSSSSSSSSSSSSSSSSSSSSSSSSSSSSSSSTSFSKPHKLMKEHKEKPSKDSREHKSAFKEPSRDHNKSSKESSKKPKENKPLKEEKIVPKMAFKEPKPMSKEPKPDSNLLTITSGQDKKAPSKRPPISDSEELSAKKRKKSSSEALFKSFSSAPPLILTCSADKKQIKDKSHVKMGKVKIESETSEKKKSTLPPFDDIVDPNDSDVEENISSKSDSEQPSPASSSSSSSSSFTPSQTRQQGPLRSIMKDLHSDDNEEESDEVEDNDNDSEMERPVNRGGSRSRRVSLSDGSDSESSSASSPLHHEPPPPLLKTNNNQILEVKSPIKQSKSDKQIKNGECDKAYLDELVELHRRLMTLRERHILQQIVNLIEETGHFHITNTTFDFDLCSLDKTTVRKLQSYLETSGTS
A1 inh = inhibitors of the anti-apoptotic protein A1, read as caspase activation. MEF A1-2A-BIM cells, Caspase-Glo 3/7 luminescence, 3 h; percent of clofoctol response, vehicle zero. caspase activation, % (test concentration not listed). hit rate 0.066% among 330,000. AID 2462;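 active = over half of replicate activation scores above 10%, or exactly half above 10 with the replicate mean above 10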;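 also: wells of about 30 µL received 50 nL stock; many hits fall short of the cut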
Ecoli growth = blocks Escherichia coli growth; OD600, 23 h; stronger effect = lower value; OD600 absorbance (test concentration not listed); hit rate 0.21% among 330,000; AID 1053175;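 active = OD600 absorbance below the run mean of sample wells minus 3.6 SD, in any replicate, cut at about 0.56 in these data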;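 also: stock transfer was 300 nL into about 60 µL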
T cruzi repl = blocks replication of Trypanosoma cruzi; T. cruzi beta-gal in NIH3T3, luminescence, 90 h; inhibition, % (test concentration not listed); hit rate 1.4% among 300,000; AID 1885;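 active = mean inhibition across valid replicates above about 55%, limit read from the data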;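 also: signal also drops with host cell toxicity which is not excluded here; 0% = plate median of DMSO wells and 100% = zero luminescence signal; higher percent means less beta-gal luminescence so fewer parasites; stock transfer was 50 nL into about 50 µL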
Beta apoptosis = blocks beta cell apoptosis; INS-1E cytokine-induced death, ATP luminescence, 48 h; percent of positive-control rescue, neutral wells zero; protection from apoptosis, % (concentration not given with the values); hit rate 0.8% among 300,000; AID 435005;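 active = all replicates at 75% or more, or half of them and the mean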;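 also: 0% = cytokine-treated negative control wells and 100% = positive control rescue; higher means more ATP so stronger rescue from cytokine killing; wells of about 40 µL received 100 nL stock; the first replicate is given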
UCH37 inh = human UCH37 deubiquitinating enzyme inhibition. purified proteasome/UCH37, Ub-AMC cleavage fluorescence. hit rate 0.33% among 330,000. Q9Y5K5. inhibition, % (test concentration not listed);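 active = mean of two replicates above 20%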;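 also: 0% = compound-free wells with enzyme and 100% = wells lacking proteasome; stock transfer was 100 nL into about 20 µL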
Target sequence (Q9Y5K5 whole entry, looked up): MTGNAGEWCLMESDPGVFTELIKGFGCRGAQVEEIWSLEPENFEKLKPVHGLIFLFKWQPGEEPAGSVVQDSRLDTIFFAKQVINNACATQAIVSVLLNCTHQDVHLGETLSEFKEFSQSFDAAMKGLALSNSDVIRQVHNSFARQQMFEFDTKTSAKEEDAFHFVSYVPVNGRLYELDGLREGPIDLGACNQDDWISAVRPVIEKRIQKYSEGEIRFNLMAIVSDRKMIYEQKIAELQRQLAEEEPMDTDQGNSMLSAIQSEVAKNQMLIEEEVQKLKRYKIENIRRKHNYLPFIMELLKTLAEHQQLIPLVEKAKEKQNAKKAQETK
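Material: human UCH37 enzyme supplied as purified proteasome complex. Measure: % inhibition of Ub-AMC cleavage fluorescence. Medium: pH 7.4 Tris-HCl (50 mM) with ovalbumin, ATP-MgCl2, DTT. Times: 30 min preincubation with enzyme, 25 min cleavage at room temperature. Detection: AMC fluorescence intensity at 355/460 nm.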
FGF22 binding = FGF22 (human) thermal shift binding; recombinant FGF22 thermal shift, SYPRO orange fluorescence; percent of sucrose octasulfate shift, DMSO zero; calls only at 9.99 µM; hit rate 1.5% among 340,000;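 active = melting point raised past a set limit in the mean and every replicate; three in four hits are not shown here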
Target sequence (Q9HCT0 whole entry, looked up): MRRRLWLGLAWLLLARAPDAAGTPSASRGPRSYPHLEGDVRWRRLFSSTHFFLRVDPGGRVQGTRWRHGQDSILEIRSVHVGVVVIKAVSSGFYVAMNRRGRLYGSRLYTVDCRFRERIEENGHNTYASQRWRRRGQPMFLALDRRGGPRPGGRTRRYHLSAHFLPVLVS
Ecoli rRNA inh = inhibits bacterial ribosomal RNA function over humanized ribosomes. GFP signal change (wild-type ribosome), % (test concentration not listed). hit rate 1.6% among 350,000. E. coli WT GFP vs humanized-ribosome RFP mutants, fluorescence, 24 h; stronger effect = lower value; DMSO median 0, no signal -100;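 active = significant combined selectivity score with lowered wild-type GFP, culture density cut under 30%, mutant RFP and density less affected; inactive = any of these conditions unmet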; also: one replicate is shown; some compounds called inactive have numbers as strong as hits
Ecoli rRNA inh OD600 = second read-out of Ecoli rRNA inh, no call of its own (marks repeat the call); OD600 change, %; measured here: OD600 growth;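 optical density of the mix in the first replicate; 0 = DMSO median and -100 = no signal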
Ecoli rRNA inh RFP = second read-out of Ecoli rRNA inh, no call of its own (marks repeat the call); RFP signal change, %; measured here: RFP humanized mutant strains;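 first replicate; 0 = DMSO median and -100 = no signal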
* = called active by the depositor; & = joins results of further samples. The list is partial, so the mix of outcomes need not match the whole.

For CCCCN(C(=O)c1cccc(S(=O)(=O)N2CCCCC2)c1)C1CCS(=O)(=O)C1 (centres undefined) the results were AF4-AF9 inh 9.1, A1 inh 0.9, Ecoli growth 0.678, T cruzi repl 0.8, Beta apoptosis -2.4, UCH37 inh -3.9, FGF22 binding inactive, Ecoli rRNA inh 6.4, Ecoli rRNA inh OD600 7.4 and Ecoli rRNA inh RFP 1.0.
O=C(Nc1cccc2nsnc12)c1ccc(F)cc1 was read as A1 inh -2.0, Ecoli growth 0.726, T cruzi repl 4.7, Beta apoptosis -6.1 and UCH37 inh -3.3.
Cc1ccc(C)n1-c1ccc(C#N)cn1 was read as AF4-AF9 inh -2.4, A1 inh 1.0, Ecoli growth 0.639, T cruzi repl -7.0, Beta apoptosis -5.0, UCH37 inh -1.8, FGF22 binding inactive, Ecoli rRNA inh 7.0, Ecoli rRNA inh OD600 8.8 and Ecoli rRNA inh RFP -2.2.
For CCN(CC(=O)Nc1c(F)cccc1F)C(=O)CNC(=O)COc1ccccc1 the results were AF4-AF9 inh -5.1, A1 inh 0.8, T cruzi repl -4.8, Beta apoptosis -4.7, FGF22 binding inactive, Ecoli rRNA inh 4.7, Ecoli rRNA inh OD600 8.9 and Ecoli rRNA inh RFP -1.7.
COc1ccc(S(=O)(=O)N(CC(=O)NCc2ccncc2)c2ccc(C)cc2)cc1Br was read as AF4-AF9 inh 1.2, A1 inh 0.4, Ecoli growth 0.624, T cruzi repl 11.0, Beta apoptosis -0.5, UCH37 inh 1.2 and FGF22 binding inactive.
For CCOC(=O)C(NCc1ccc(F)cc1)(NC(=O)c1ccccc1)C(F)(F)F (centres undefined) the results were A1 inh 0.2, Ecoli growth 0.724, T cruzi repl -9.1 and UCH37 inh 1.5.
Screening COc1ccc(S(=O)(=O)N(C)CC(=O)NCc2cccnc2)cc1 returned A1 inh 0.5, Ecoli growth 0.688, T cruzi repl 2.5, Beta apoptosis -2.0, UCH37 inh 0.9, Ecoli rRNA inh 11.9, Ecoli rRNA inh OD600 11.2 and Ecoli rRNA inh RFP 3.0.
O=C(OCCCN1CCOCC1)c1ccc(O)c(O)c1 was read as A1 inh 0.1, Ecoli growth 0.667, T cruzi repl -5.7, Beta apoptosis 1.8, UCH37 inh 0.8, FGF22 binding inactive, Ecoli rRNA inh 14.3, Ecoli rRNA inh OD600 8.2 and Ecoli rRNA inh RFP -1.0.
For CC(C)NC(=O)Cn1cnc2c1c(=O)n(C)c(=O)n2C the results were A1 inh 1.0, Ecoli growth 0.715, T cruzi repl -11.6, Beta apoptosis -6.5 and UCH37 inh 1.0.
`Fc1ccc(Cn2nnc(-c3ccc(CN4CCOCC4)cc3)n2)cc1` gave A1 inh -0.2, Ecoli growth 0.661, T cruzi repl -6.4, Beta apoptosis -1.5 and UCH37 inh 3.0.
Screening C=CCN1C(=O)C(CC(=O)Nc2ccccc2)S/C1=N/c1nccs1 (centres undefined) returned AF4-AF9 inh 1.9, A1 inh 0.2, T cruzi repl -10.5, Beta apoptosis 11.9, FGF22 binding inactive, Ecoli rRNA inh 16.6, Ecoli rRNA inh OD600 6.9 and Ecoli rRNA inh RFP 5.4.
Screening COc1ccc(OC)c(-n2c(-c3cc(-c4ccco4)[nH]n3)n[nH]c2=S)c1 returned AF4-AF9 inh -10.1, A1 inh 0.1, Ecoli growth 0.702, T cruzi repl 0.4, Beta apoptosis -1.0, UCH37 inh 2.0, FGF22 binding inactive, Ecoli rRNA inh 3.4, Ecoli rRNA inh OD600 1.9 and Ecoli rRNA inh RFP 2.3.
Screening COCCN(C(=S)Nc1ccc(C)cc1C)C(C)c1ccco1 (centres undefined) returned AF4-AF9 inh -48.2, A1 inh 0.9, Ecoli growth 0.684, T cruzi repl -16.2, Beta apoptosis -4.2, UCH37 inh 4.3, FGF22 binding inactive, Ecoli rRNA inh 6.4, Ecoli rRNA inh OD600 4.7 and Ecoli rRNA inh RFP 1.9.
Cc1ccc(C(=O)NNc2nc3ccccc3nc2C(F)(F)F)cc1 was read as A1 inh -0.5, Ecoli growth 0.709, T cruzi repl -5.1, Beta apoptosis 6.8 and UCH37 inh 3.3.
CCN(CC(=O)NCc1ccc(F)cc1)C(=O)c1ccc(COc2ccccc2)cc1 was read as AF4-AF9 inh 5.6, A1 inh -5.3, Ecoli growth 0.649, T cruzi repl 8.2, Beta apoptosis 4.8, UCH37 inh 1.0, FGF22 binding inactive, Ecoli rRNA inh -13.9, Ecoli rRNA inh OD600 -25.4 and Ecoli rRNA inh RFP -2.6.
C[C@H](CO)N1C[C@H](C)[C@@H](CN(C)Cc2ccc3c(c2)OCO3)Oc2ccc(NC(=O)Cn3cnnn3)cc2C1=O was read as AF4-AF9 inh 0.4&2.4, A1 inh -0.5, Ecoli growth 0.764, Beta apoptosis 6.9, UCH37 inh -3.6, FGF22 binding inactive, Ecoli rRNA inh 1.7&4.1, Ecoli rRNA inh OD600 -4.3&12.6 and Ecoli rRNA inh RFP 1.8&-2.2.
`CCCC[n+]1c(C)sc2cc(OC)ccc21` gave AF4-AF9 inh -15.2, A1 inh -0.9, Ecoli growth 0.65, T cruzi repl 23.7, Beta apoptosis -8.2, UCH37 inh -1.2, FGF22 binding inactive, Ecoli rRNA inh 5.7, Ecoli rRNA inh OD600 -2.9 and Ecoli rRNA inh RFP -5.0.
For CCN(CC)CCn1c(=S)[nH]c2cc3c(cc2c1=O)OCO3 the results were A1 inh 0.6, Ecoli growth 0.685, T cruzi repl 1.4, Beta apoptosis -0.6 and UCH37 inh 3.9.
COc1cc(/C=C2\C(=N)N3N=C(C)SC3=NC2=O)cc(Cl)c1OCCOc1ccc(NC(C)=O)cc1 was read as AF4-AF9 inh -2.6, A1 inh 0.0, Ecoli growth 0.693, T cruzi repl -3.1, Beta apoptosis -3.2, UCH37 inh 1.0, FGF22 binding inactive, Ecoli rRNA inh 3.0, Ecoli rRNA inh OD600 12.9 and Ecoli rRNA inh RFP 0.6.
CN1C(=O)NC(c2ccccc2[N+](=O)[O-])C2=C1CCCC2=O (centres undefined) was read as AF4-AF9 inh -3.1, A1 inh 0.8, Ecoli growth 0.667, T cruzi repl 5.8, Beta apoptosis 1.5, UCH37 inh 6.1, FGF22 binding inactive, Ecoli rRNA inh -2.9, Ecoli rRNA inh OD600 -9.4 and Ecoli rRNA inh RFP -10.3.

Of the compounds above, 2 have an NH in an aromatic ring:
Screening COc1ccc(OC)c(-n2c(-c3cc(-c4ccco4)[nH]n3)n[nH]c2=S)c1 returned AF4-AF9 inh -10.1, A1 inh 0.1, Ecoli growth 0.702, T cruzi repl 0.4, Beta apoptosis -1.0, UCH37 inh 2.0, FGF22 binding inactive, Ecoli rRNA inh 3.4, Ecoli rRNA inh OD600 1.9 and Ecoli rRNA inh RFP 2.3.
For CCN(CC)CCn1c(=S)[nH]c2cc3c(cc2c1=O)OCO3 the results were A1 inh 0.6, Ecoli growth 0.685, T cruzi repl 1.4, Beta apoptosis -0.6 and UCH37 inh 3.9.

Carrying on:
For CC(=O)c1cccc(NC(=O)CCS(=O)(=O)c2cc3c(cc2C)NC(=O)CO3)c1 the results were AF4-AF9 inh -16.4, A1 inh 2.3, Ecoli growth 0.708, T cruzi repl -9.3, Beta apoptosis 1.0, UCH37 inh 3.5, FGF22 binding inactive, Ecoli rRNA inh 12.7, Ecoli rRNA inh OD600 17.0 and Ecoli rRNA inh RFP 3.0.
`COc1ccc(-n2c(=S)[nH]c3cc(C(=O)NCCCN4CCOCC4)ccc3c2=O)cc1` gave AF4-AF9 inh -1.2, A1 inh 1.0, Ecoli growth 0.682, T cruzi repl -4.1, Beta apoptosis -10.9, UCH37 inh 4.9, FGF22 binding inactive, Ecoli rRNA inh 8.0, Ecoli rRNA inh OD600 4.4 and Ecoli rRNA inh RFP -1.1.
For CCOC(=O)c1cc(CC)sc1NC(=O)CN1CCN(C(=O)C2CCCO2)CC1 (centres undefined) the results were AF4-AF9 inh -27.6, A1 inh -0.1, Ecoli growth 0.626, T cruzi repl 18.3, Beta apoptosis 1.7, UCH37 inh 2.1, FGF22 binding inactive, Ecoli rRNA inh -3.4, Ecoli rRNA inh OD600 -12.3 and Ecoli rRNA inh RFP 1.2.
For COCC(=O)N1CCCN(c2nc3c(C)cccc3cc2C#N)CC1 the results were A1 inh -0.8, Ecoli growth 0.695, T cruzi repl -5.3, Beta apoptosis -0.1 and UCH37 inh -48.3.
For CCC1Oc2ccc(C)cc2N(CC(=O)NCCc2ccc(OC)c(OC)c2)C1=O (centres undefined) the results were AF4-AF9 inh 2.0, Ecoli growth 0.737, T cruzi repl 12.3, UCH37 inh 8.0, FGF22 binding inactive, Ecoli rRNA inh 1.6, Ecoli rRNA inh OD600 -13.4 and Ecoli rRNA inh RFP -2.5.
For CCc1ccc(CNC(=O)CCc2nc(-c3cccs3)no2)cc1 the results were AF4-AF9 inh -1.8, A1 inh 0.3, Ecoli growth 0.769, T cruzi repl 15.3, Beta apoptosis -6.7, UCH37 inh 4.1, FGF22 binding inactive, Ecoli rRNA inh -13.6, Ecoli rRNA inh OD600 -27.1 and Ecoli rRNA inh RFP -8.4.
`CCN(c1ccccc1)S(=O)(=O)c1ccc(Cl)c(C(=O)NC2CCN(Cc3ccccc3)CC2)c1` gave AF4-AF9 inh 7.6, Ecoli growth 0.712, UCH37 inh 3.2, FGF22 binding inactive, Ecoli rRNA inh -6.1, Ecoli rRNA inh OD600 -12.7 and Ecoli rRNA inh RFP 6.4.
Cc1ccc2cc(C#N)c(N3CCCN(S(=O)(=O)c4ccccc4)CC3)nc2c1C was read as AF4-AF9 inh 8.7, A1 inh 0.0, Ecoli growth 0.587, T cruzi repl 12.4, Beta apoptosis -3.8, UCH37 inh -15.8, FGF22 binding inactive, Ecoli rRNA inh -7.0, Ecoli rRNA inh OD600 -5.8 and Ecoli rRNA inh RFP -1.0.
Screening O=C(CNC(=O)c1cccs1)Nc1ccc(N2CCOCC2)cc1 returned AF4-AF9 inh -0.4, A1 inh 0.4, Ecoli growth 0.653, Beta apoptosis -14.0, UCH37 inh 2.5, FGF22 binding inactive, Ecoli rRNA inh 1.5, Ecoli rRNA inh OD600 0.3 and Ecoli rRNA inh RFP -0.4.
Cc1nc2nc(SCC(=O)c3ccc([N+](=O)[O-])cc3)[nH]c2cc1Br was read as A1 inh -0.4, Ecoli growth 0.673, T cruzi repl 3.1, Beta apoptosis 9.3 and UCH37 inh 2.1.
For Cn1cc(Br)c(C(=O)NNC(=O)c2ccc(Br)cc2)n1 the results were AF4-AF9 inh -1.0, A1 inh 0.0, Ecoli growth 0.729, Beta apoptosis -2.3, UCH37 inh -0.2 and FGF22 binding inactive.
`COc1ccc(CCNC(=O)C(=O)NCC2OCCN2C(=O)c2ccc(Cl)cc2)cc1OC` (centres undefined) gave AF4-AF9 inh -4.6, A1 inh 0.0, Ecoli growth 0.694, T cruzi repl 3.2, Beta apoptosis -0.2, UCH37 inh 3.4, FGF22 binding inactive, Ecoli rRNA inh 8.4, Ecoli rRNA inh OD600 3.1 and Ecoli rRNA inh RFP 0.4.

From PubChem
